# High-throughput results deposited in PubChem by National Center for Advancing Translational Sciences (NCATS).
# VDR inh – Inhibitors of the vitamin D receptor (VDR): qHTS; Vitamin D3 receptor (Homo sapiens), P11473; VDR-SRC2-3 peptide fluorescence polarization, 2 h; Potency, µM, for inactives: max response, negative = inhibition, most hits filed as inhibitors; 400,000 compounds, 0.93% hits; active = well fitted inhibition curve with a large enough effect; inconclusive = small, poorly fitted or top-dose-only effect, or another doubt; inactive = no such curve, though single readings can be large or run the other way; note: series mostly up to about 120 µM
# Target sequence (P11473 whole entry, looked up): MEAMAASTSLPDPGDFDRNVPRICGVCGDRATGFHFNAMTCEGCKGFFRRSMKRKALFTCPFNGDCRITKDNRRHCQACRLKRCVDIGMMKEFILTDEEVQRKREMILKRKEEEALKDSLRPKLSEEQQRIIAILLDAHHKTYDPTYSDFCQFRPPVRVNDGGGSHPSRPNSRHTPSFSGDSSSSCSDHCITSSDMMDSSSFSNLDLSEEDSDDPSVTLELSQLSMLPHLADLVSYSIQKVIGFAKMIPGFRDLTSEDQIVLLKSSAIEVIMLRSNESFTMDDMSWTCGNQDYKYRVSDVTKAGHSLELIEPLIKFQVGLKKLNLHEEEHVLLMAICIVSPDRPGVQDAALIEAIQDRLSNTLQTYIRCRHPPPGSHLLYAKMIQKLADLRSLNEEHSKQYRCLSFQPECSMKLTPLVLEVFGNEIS
#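 Two reagent solutions held at 4 deg C in the dark were dispensed, compounds pinned at 23 nl, and the mixture incubated 2 h at room temperature. Read-out: fluorescence polarization of VDR–SRC2-3 peptide binding.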
# An asterisk follows results filed as active; ? = inconclusive; & = joins results of further samples. % is set by controls: 0 for no effect and ±100 for the full control effect; potency is the fitted concentration of half-maximal effect. These rows are one share of the data; the hit share may differ from the screen's.
Molecule	VDR inh
c1ccc(CN2C3=NCCN3c3ccccc32)cc1	1.3%
COc1ccc(NC(=O)N2CC(C)OC(C)C2)cc1OC (stereo unspecified)	-0.5%
CS(=O)(=O)N1CCN(c2ccc(C(=O)NC3C4CC5CC(C4)CC3C5)cc2[N+](=O)[O-])CC1 (stereo unspecified)	-3.2%
CN(C)S(=O)(=O)c1cccc(NC(=O)CCc2c[nH]c3ccccc23)c1	-9.9%
O=C(CN1C(=O)CSC1=O)Nc1ccc2c(c1)OCCO2	-2.5%
Cc1onc(-c2c(F)cccc2Cl)c1C(=O)NC(=S)NCc1cccnc1	-2.5%
CCCCC[n+]1ccn(C2=C([O-])c3ccccc3C(=O)/C2=N\S(=O)(=O)c2ccc(Br)cc2)c1	-29.6%
COc1ccc(-n2c(CC3C(=O)Nc4ccc(C)cc43)nc3ccccc3c2=O)cc1 (stereo unspecified)	11.7%
COC(=O)c1cn(NC(=O)c2cc(OC)cc(OC)c2)c(=O)c2ccccc12	-6.4%
N#Cc1ccc(OC(=O)c2cc(-c3ccc(Cl)cc3)on2)cc1	11.9%
COc1cc2c(cc1OC)C(C)N(C(=O)Cn1ncc3c1-c1ccccc1OC3)CC2 (stereo unspecified)	-8.1%
NCCCCCc1nnc(SCc2ccc(F)cc2)o1	?
O=c1c2c(nc3cc(-c4ccc(F)cc4)[nH]n13)CCCC2	3.0%
O=c1c2cn[nH]c2nc(SCc2c(F)cccc2F)n1-c1ccc(Cl)cc1	-15.7%&7.8%
COCc1c(CCl)cnc(C)c1O	-1.2%
CCOc1ccc(NC(=O)N(C2CCCC2)C2CCN(C(C)=O)CC2)cc1	-6.2%
CCN1CCN(c2ccc(S(=O)(=O)N3CCCCC3)cc2NC(=O)/C=C/c2ccc(F)cc2)CC1	-6.8%
COc1ccc(Cc2nnc(NC(=O)Cn3cnc4c3c(=O)n(C)c(=O)n4C)s2)cc1	6.1%
Cc1ccc2cc(CN(C(=O)c3ccncc3)C(C)C)c(=O)[nH]c2c1	-13.2%
CCC1CCCCN1CCCNC(=O)c1[nH]c2ccccc2c1Sc1ccc(Cl)cc1 (stereo unspecified)	10.8%
CCn1cc2nc(SCc3ccccc3)n(Cc3ccc(C)cc3)c(=O)c2n1	13.0%
O=C(N/N=C/c1sc(N2CCOCC2)nc1-c1ccccc1)c1ccccc1O	-0.8%
CCOc1ccc(-c2nc(N)ncc2Oc2ccc(OC)cc2)c(O)c1	11.0%
Cc1ccc(NC(=O)C2CCN(S(=O)(=O)c3c(C)noc3C)CC2)c(C)c1	-6.1%
Cc1cccc(OCC(O)Cn2c(N3CCCCC3)nc3c2c(=O)[nH]c(=O)n3C)c1 (stereo unspecified)	-14.4%
Cc1ccc(NC(=O)CCc2ccc(C)o2)c(C)c1	-3.9%
Cc1cccc(NC(=O)Nc2nnc(N(C)C3CCCCC3)s2)c1C	1.0%
Cc1cc(C)c2sc(NC(=O)c3ccc(S(=O)(=O)N4CCCC4)cc3)nc2c1	7.0%
COc1ccc(C(=O)NNC(=S)NC(=O)c2ccc(OC)cc2)cc1	-5.3%
COc1cc2c(cc1OC)C(Cc1ccc(O)cc1)N(C)CC2 (stereo unspecified)	14.1%
Clc1ccccc1-c1ccc2ncnc(NCCN3CCOCC3)c2c1	-18.3%
CCCC(=O)Nc1ccccc1-c1nnn(CC(=O)Nc2ccc(OCC)cc2)n1	13.0%
O=C1c2ccccc2C(Nc2ccc(-c3nc4ccccc4[nH]3)cc2)N1Cc1ccco1 (stereo unspecified)	-12.9%
COc1ccc(OC(C)C(=O)N2CCOCC2)cc1 (stereo unspecified)	-0.7%
COc1cc(C(=O)COC(=O)c2ccc([N+](=O)[O-])o2)cc(OC)c1OC	-9.6%
O=C(Nc1ccc(S(=O)(=O)N2CCCC2)cc1)c1cccnc1Cl	-6.9%
C=C(C)COc1ccc(-c2ncncc2-c2ccc(Cl)cc2)c(O)c1	9.9%
CCC(=O)NNc1cc(=O)c2c(=O)n(C)c(=O)n(C)c2[nH]1	1.4%
CCn1c(CNC(=O)C23CC4CC(CC(C4)C2)C3)nnc1SCC(=O)Nc1ccc(C)cc1	-9.8%
Cc1cc(F)ccc1S(=O)(=O)N(C(=O)c1ccncc1)c1ccc(OC(=O)c2ccncc2)cc1	?
S=C(N/N=C1\CCc2ccccc21)NC1CCCCC1	3.7%
CCCCCc1ccc(S(=O)(=O)NCCc2ccncc2)cc1	-1.9%
O=C(Nc1ccnn1C1CCN(C(=O)c2cccc(C(F)(F)F)c2)CC1)C1CC1	-9.9%
Cc1ccccc1CS(=O)(=O)CCC(=O)NCc1ccccn1	1.3%
COc1ccccc1-c1cc(C(F)(F)F)n2ncc(S(=O)(=O)c3ccccc3)c2n1	4.2%
COc1ccc(-c2cn(-c3ccc(SC(F)F)cc3)c3[n+]2CCC3)cc1OC	-7.6%
Cc1ccccc1NC(=O)CSc1nc(O)cc(=O)n1C	-2.9%
COc1ccc(S(=O)(=O)N2CCN(c3ncccn3)CC2)cc1OC	-25.8%
N#Cc1ccc(NC(=S)Nc2ccccc2)cc1	-12.5%
COc1ccc(Br)cc1CNC(=O)c1ccc2c(c1)nc1n2CCC(C)C1 (stereo unspecified)	16.3%

# Next structures:
Molecule	VDR inh
O=C(NC1CCCC1)[C@@H]1CSC2c3ccccc3C(=O)N21 (stereo partly specified)	?
CC(CNC(=O)C1CCN(Cc2cc3ccccc3n2Cc2ccccc2)CC1)c1ccccc1 (stereo unspecified)	1.0%
CCCCn1c(SCC(=O)NCc2ccccc2)nc2ccc(N3CCOCC3)cc2c1=O	-14.8%
O=C(C1CCCO1)N1CCN(C(=S)Nc2cccc(F)c2)CC1 (stereo unspecified)	8.2%
N#Cc1c(-c2ccc(Cl)cc2)cc(-c2cccs2)nc1SCC(=O)O	?
Cc1c(OCc2ccccc2)c(=O)ccn1Cc1ccc(Cl)cc1	-4.0%
COC(=O)COc1ccc(S(=O)(=O)Nc2ccc3c(c2)OCO3)cc1Cl	8.5%
O=C(OCCn1cncn1)c1cc2ccccc2oc1=O	0.9%
Cc1ccccc1NC(=O)NCC1CCCO1 (stereo unspecified)	-18.4%
C/C(Cl)=C/CSc1nn2c(=O)c3ccccc3nc2s1	2.8%

# Among those listed so far, these have an aryl thioether with sulfur outside any ring.
Molecule	VDR inh
NCCCCCc1nnc(SCc2ccc(F)cc2)o1	?
O=c1c2cn[nH]c2nc(SCc2c(F)cccc2F)n1-c1ccc(Cl)cc1	-15.7%&7.8%
CCC1CCCCN1CCCNC(=O)c1[nH]c2ccccc2c1Sc1ccc(Cl)cc1 (stereo unspecified)	10.8%
CCn1cc2nc(SCc3ccccc3)n(Cc3ccc(C)cc3)c(=O)c2n1	13.0%
CCn1c(CNC(=O)C23CC4CC(CC(C4)C2)C3)nnc1SCC(=O)Nc1ccc(C)cc1	-9.8%
COc1ccc(-c2cn(-c3ccc(SC(F)F)cc3)c3[n+]2CCC3)cc1OC	-7.6%
Cc1ccccc1NC(=O)CSc1nc(O)cc(=O)n1C	-2.9%
CCCCn1c(SCC(=O)NCc2ccccc2)nc2ccc(N3CCOCC3)cc2c1=O	-14.8%
N#Cc1c(-c2ccc(Cl)cc2)cc(-c2cccs2)nc1SCC(=O)O	?
C/C(Cl)=C/CSc1nn2c(=O)c3ccccc3nc2s1	2.8%

# Next results follow:
Molecule	VDR inh
CCC(C)NC(=O)Nc1ccc(Br)cc1Cl (stereo unspecified)	-3.0%
CCN(CC)S(=O)(=O)c1ccc(/C=C/C(=O)Nc2ccccc2N2CCOCC2)cc1	1.8%
COCC1CCCN(Cc2nc(Cc3ccccc3)no2)C1 (stereo unspecified)	-18.4%
NS(=O)(=O)c1ccc(CCNC(=O)Cc2ccc(S(=O)(=O)N3CCCC3)s2)cc1	3.0%
CC[C@@H](C)[C@@H]1CN([C@@H](C)CN2CCC[C@H]2CN2C(N)=NC[C@H]2C(C)C)C(=N)N1CCc1ccc(Cl)c(Cl)c1	3.1%
CCC1(COC(=O)Nc2cccc(Cl)c2)COC1	10.6%
Cc1cc(C(=O)Nn2cnnc2)ccc1[N+](=O)[O-]	?
Cc1ccc(NC(=O)COC(=O)c2ccn(C)n2)cc1	-8.9%
COC(=O)CSc1nnc(CNC(=O)c2cc(OC)c(OC)c(OC)c2)n1C	6.1%
Cc1cc(C)c(OCC(=O)Nc2ccc(NC(=O)c3ccco3)cc2)c([N+](=O)[O-])c1	-9.0%
O=C(CCc1c[nH]c2ccccc12)OCc1cccc(C(F)(F)F)c1	-0.6%
COc1ccccc1N(CC(O)COc1c(C)cc(C)cc1C)S(=O)(=O)c1ccccc1 (stereo unspecified)	-7.7%
NC(=O)CC(NC(=O)c1ccccc1)c1ccc(NCCOc2ccccc2)c([N+](=O)[O-])c1 (stereo unspecified)	-25.9%
C=C(C)[C@@H]1C2=CC(C(=O)OC)=C(C[C@@H](C(=C)C)[C@H]3O[C@H]3C3=C[C@H]1OC3=O)O2	20µM*
COc1ccccc1C(=O)NCCC(=O)NNC(=O)C1COc2ccccc2O1 (stereo unspecified)	-6.1%
OCc1ccc(O)c2ncccc12	10.9%
COc1ccccc1CNC(=O)c1ccc2c(c1)nc(C)n2-c1ccccc1OC	21.5%
O=C(NNC(=S)NC(=O)c1sc2ccccc2c1Cl)c1ccc(Cl)cc1	?
C[C@@H](C(=O)OCC(=O)Nc1cc(S(=O)(=O)N2CCOCC2)ccc1Cl)N1C(=O)C2CCCCC2C1=O (stereo partly specified)	6.3%
CCN(CC)c1nc2c(-c3cccc(Br)c3)nnn2c2ccccc12	-14.9%
COc1cc(NC(=O)c2cc3ccc4cccnc4c3[nH]2)cc(OC)c1OC	3.2%
O=C(Nc1ccc(OC(F)(F)F)cc1)C1CCCN(S(=O)(=O)c2cnc[nH]2)C1 (stereo unspecified)	-4.7%
C=CCN1CN(CCc2ccccc2)CNC1=S	-7.0%
NC(=S)c1ccc[n+]([O-])c1	50.1µM*
CC(NC(=O)c1ccco1)c1nc(-c2ccc(C(C)(C)C)cc2)no1 (stereo unspecified)	5.4%
CCN1CCN(C(=O)c2ccc(CN(c3ccc(C)c(C)c3)S(C)(=O)=O)cc2)CC1	-6.2%
Cc1sc2ncnc(SCC(=O)c3ccc(O)cc3O)c2c1C	-2.7%
CC(C)[C@@H](CC(=O)N[C@@H]1CCCC[C@H]1C(=O)N[C@H](CC(=O)N[C@@H](CCC(=O)O)CC(=O)O)Cc1ccccc1)NC(=O)C[C@H](CO)NC(=O)[C@@H]1CCCC[C@H]1N	6.1%
C[C@H]1CC[C@@]2(O[C@H](CCO)C[C@@H](O)[C@@H]2O)O1	19.5%
CC12CCC=CC1C(c1ccc(F)c(/C=C/c3ccccc3)c1)N(Cc1ccccc1)C2=O (stereo unspecified)	-11.0%
Cc1csc(SC(C)c2nc3scc(-c4ccccc4)c3c(=O)[nH]2)n1 (stereo unspecified)	-12.6%
COc1cccc(CC(=O)Nc2nc(-c3ccc(OC)c(OC)c3)cs2)c1	-23.3%
Cc1csc(SCC(=O)NC(C)C2CC3CCC2C3)n1 (stereo unspecified)	-6.6%
CN(CCc1cnn(C)c1)Cc1cn(C)nc1-c1ccc2c(c1)OCCO2	6.0%
CCCn1nc(C(=O)OCC(=O)c2c(N)n(C)c(=O)n(C)c2=O)c2ccccc2c1=O	5.3%
COc1ccc(-c2oc3ncn4nc(-c5ccc(Cl)cc5)nc4c3c2-c2ccc(OC)cc2)cc1	-5.6%
Cc1ccc(NC(=O)/C=C/c2ccc(S(=O)(=O)N3CCOCC3)cc2)cc1S(=O)(=O)N(C)C	13.5%
COc1ccc(S(=O)(=O)NC(C)C(=O)NCc2cccnc2)cc1OC (stereo unspecified)	4.2%
Clc1ccccc1-c1nn2c(-c3ccncc3)nnc2s1	?
Cc1ccc(Cn2c(=N)c(C(=O)NCc3ccco3)cc3c(=O)n4ccccc4nc32)cc1	4.7%
Cc1ccc(S(=O)(=O)Nc2ccccc2/C=N/c2nc3ccccc3n2C(C)C)cc1	-18.4%
O=C(NCCc1ccccc1)c1cc([N+](=O)[O-])ccc1N1CCOCC1	-2.9%
COC(C/C=C/[C@@H](O)COCc1ccccc1)OC	-4.3%
S=C1NC[C@H](Cc2ccccc2)N1CC1CCN(CCCCc2ccccc2)CC1	-10.3%
CC1CCN(S(=O)(=O)c2ccc3c(ccn3CCC(=O)N3CCCCC3)c2)CC1	-4.5%
COc1ccccc1/C=C(\NC(=O)c1ccc(OC)c(OC)c1)C(=O)Nc1cc([N+](=O)[O-])ccc1C	-20.1%
Cc1cc(OC(=O)Cc2cccc3ccccc23)c([N+](=O)[O-])c(=O)[nH]1	-2.2%
COc1ccc(OC)c(CNC(=O)c2ccc3nc(C(C)C)oc3c2)c1	4.0%
COc1ccccc1N1CCN(C(c2ccccc2)c2nnnn2Cc2ccccc2)CC1 (stereo unspecified)	-17.3%
Cn1cc(C(=O)NCc2cccs2)c(=O)c2cc(S(=O)(=O)N3CCCC3)ccc21	-7.0%

# Continued:
Molecule	VDR inh
CCC(=O)N1CCN(CCN=CC2=C(O)CC(c3ccc(OC)cc3)CC2=O)CC1 (stereo unspecified)	-20.8%
CC(Oc1ccc(C(=O)c2ccc(F)cc2)cc1)C(=O)N1CCOCC1 (stereo unspecified)	-6.4%
CC(C)(C)c1ccc(S(=O)(=O)CCc2ccccn2)cc1	14.3%
COc1cc(-c2nnc(-c3ccco3)o2)ccc1OCc1ccccc1	-4.4%
